From PubChem BioAssay
Methyltransferases: Primary Screen for Target Class Profiling of Small Molecule Inhibitors of Methyltransferases; 25,000 compounds, 3.9% hits; calls only at 40 µM; purified enzyme, MTase-Glo SAH luminescence; active compounds read low; active = -50% or lower on at least one of six enzymes; inconclusive = the cases between; inactive = as a rule above -30% on all six;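 also: enzymes were COMT GAMT GNMT HNMT NNMT and PNMT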
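Each enzyme was reacted with SAM and its substrate, with compounds tested once at 40 uM; SAH formed was read by MTase-Glo luminescence.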
Calls only; i = inactive; u = inconclusive; + = active, no number. % is scaled to controls: 0 for no effect and ±100 for the full control effect. The list is partial; the hit share may differ from the screen's.

mol	Methyltransferases
COc1ccccc1CNC(=O)C1(C)Cn2nc(-c3ccccc3)cc2C(=O)N1Cc1ccc2c(c1)OCO2 (stereo unspecified)	i
Cc1ccc(NC(=O)Cn2nc3n(C(C)C)c(=O)c4ccc(C(=O)NC5CCCC5)cc4n3c2=O)c(C)c1	i
CC(=O)N[C@H]1[C@H](O[C@H]2CC[C@@]3(C)C(CC[C@]4(C)C3CC=C3C5CC(C)(C)CC[C@]5(C(=O)O)[C@H](O)C[C@]34C)C2(C)C)O[C@H](CO[C@@H]2OC[C@H](O)[C@H](O)[C@H]2O[C@@H]2OC[C@@H](O)[C@H](O)[C@H]2O)[C@@H](O)[C@@H]1O (stereo partly specified)	i
CCCN1C(=O)c2cc(C(=O)NCCCOCC)nn2CC1(C)C(=O)NC1CCCC1 (stereo unspecified)	i
CCC(C)NC(=O)c1ccc2c(=O)n(C3CC3)c3nn(CC(=O)Nc4cccc(C)c4)c(=O)n3c2c1 (stereo unspecified)	i
COc1cccc(CN2C(=O)c3nc4ccccc4n3CC2(C)C(=O)NC2CCCCC2C)c1 (stereo unspecified)	i
Cc1ccc(C)c(N2C(=O)c3cc4ccccc4n3CC2(C)C(=O)NCCC(C)C)c1 (stereo unspecified)	i
CC(C)c1cc(C(=O)N2CC[C@@H](NC(=O)C3CC3)C2)n[nH]1	i
O=C(CCc1nnc2n(Cc3ccccc3)c(=O)c3ccccc3n12)N1CCN(c2ccccc2F)CC1	i
Cc1cc(NC(=O)CN(C)S(=O)(=O)c2ccc3[nH]c4c(c3c2)CCCC4)ccc1Br	i
C[C@@H]1O[C@@H](O[C@H]2[C@H](O[C@H]3[C@H](O[C@H]4CC[C@@]5(CO)C(CC[C@]6(C)C5CC=C5C7CC(C)(C)C[C@@H](O)[C@]7(C)CC[C@]56C)C4(C)C)O[C@H](C(=O)O)[C@@H](O)[C@@H]3O)OC[C@@H](O)[C@@H]2O)[C@H](O)[C@H](O)[C@H]1O (stereo partly specified)	i
Cc1nnnn1-c1cccc(C(=O)N2CCCC(O)(CN(C)C)CC2)c1 (stereo unspecified)	i
O=c1c2ccccc2n2c(=O)n(Cc3c(F)cccc3Cl)nc2n1CCc1ccccc1	i
CC(C)c1ccc(CN2CCCC3(CCN(c4ncccc4C(N)=O)C3)C2)cc1 (stereo unspecified)	i
COc1ccc2nc(-c3cc(OC)c(OC)c(OC)c3)cc(C(=O)NCC(=O)Nc3ccc(C(C)=O)cc3)c2c1	i
CCCn1c(=O)c2cc(F)ccc2n2c(SCC(=O)Nc3cc(OC)cc(OC)c3)nnc12	i
COCCNc1cc(-c2noc([C@@H]3CCCN3CC(C)C)n2)ccn1	+
COC(=O)c1ncn2c1C(=O)N(Cc1ccc(Cl)cc1)C(C)(C(=O)NC1CCCC1)C2 (stereo unspecified)	i
COC(=O)CCC(=O)OC[C@]1(C)CCC[C@@]2(C)C3CC[C@]4(C)C=CC3(CCC12)C4 (stereo partly specified)	i
CCOc1ccc(CN2C(=O)c3cc4occc4n3CC2(C)C(=O)NC2CCCC(C)C2C)cc1 (stereo unspecified)	i
O=C1COc2ccc(-c3ccsc3)nc2CN1Cc1ccccc1	i
CC(C)n1c(=O)c2ccc(C(=O)NC3CCCCC3)cc2n2c(=O)n(CC(=O)NC3CCCC3)nc12	i
CCc1ccc(CNC(=O)c2ccc3c(=O)nc4c(-c5ccc(OC)cc5)n[nH]n4c3c2)cc1	i
C=CC(=O)N1CCC(Oc2cc3c(Nc4ccc(Cl)c(Cl)c4F)ncnc3cc2OC)CC1	u
O=C(Cc1ccccn1)N1CCC2(CC1)CCN(Cc1cccs1)c1ccccc1O2	i

As a working copy, 2 of the compounds above:
mol	Methyltransferases
C=CC(=O)N1CCC(Oc2cc3c(Nc4ccc(Cl)c(Cl)c4F)ncnc3cc2OC)CC1	u
O=C(Cc1ccccn1)N1CCC2(CC1)CCN(Cc1cccs1)c1ccccc1O2	i

Some of these compounds in order of SMILES length, low to high.
mol	Methyltransferases
CC(C)c1ccc(CN2CCCC3(CCN(c4ncccc4C(N)=O)C3)C2)cc1 (stereo unspecified)	i
Cc1cc(NC(=O)CN(C)S(=O)(=O)c2ccc3[nH]c4c(c3c2)CCCC4)ccc1Br	i
CC(=O)N[C@H]1[C@H](O[C@H]2CC[C@@]3(C)C(CC[C@]4(C)C3CC=C3C5CC(C)(C)CC[C@]5(C(=O)O)[C@H](O)C[C@]34C)C2(C)C)O[C@H](CO[C@@H]2OC[C@H](O)[C@H](O)[C@H]2O[C@@H]2OC[C@@H](O)[C@H](O)[C@H]2O)[C@@H](O)[C@@H]1O (stereo partly specified)	i

Next part.
mol	Methyltransferases
CCOC(=O)CNC(=O)N1Cc2c(sc3c2CCCC3)-n2cccc2C1c1ccc(C(C)C)cc1 (stereo unspecified)	i
O=[S+]1([O-])NC2(CCN(Cc3ccoc3)CC2)COc2ccccc21	i
COc1ccccc1CC(=O)N1CCc2c(nc3cc(-c4ccccc4Cl)[nH]n3c2=O)C1	i
O=C(/C=C/c1ccc(O)cc1)O[C@@H]1C[C@@](O)(C(=O)O)C[C@@H](O)[C@@H]1O	i
CCOc1ccc(/C=C2\SC(=O)N(CCN)C2=O)cc1	u
COc1ccc(OC2CCN(C(C)=O)CC2)c(C(=O)N2C[C@@H]3CCC[C@H]2C3)c1	i
Cc1ccccc1CNC(=O)C1(C)Cc2ccccc2C(=O)N1CCC(C)C (stereo unspecified)	i
CN1CCCCCCN(C(=O)c2cccn2C)[C@H]2CCC[C@H]2C1=O	i
CC(C)OCCCN1C(=O)c2cc3occc3n2CC1(C)C(=O)NC1CCCCCCC1 (stereo unspecified)	i
O=C(c1cc(-c2ccccc2)nc2ccccc12)N1CCOCC(CO)C1 (stereo unspecified)	i
COc1ccc(CCNC(=O)CN(C)S(=O)(=O)c2ccc3[nH]c4c(c3c2)CCCC4)cc1OC	i
COc1ccc(NS(=O)(=O)c2ccc3c(c2)[C@H]2C=CC[C@H]2[C@@H](c2cccc(OC)c2OC)N3)cc1	i
O=C(c1ccc(Cl)cc1)N1CC2(CCN(CC3CC3)CC2)Cc2ccccc21	+
CCCn1c(=O)c2ccccc2n2c(SCc3ccccc3)nnc12	i
C=C(CCC1=C(C)[C@H]2[C@H](CC3[C@@H]4CC=C5C[C@@H](O)C[C@@H](O)[C@]5(C)C4[C@H](O)C[C@@]32C)O1)CO[C@@H]1O[C@H](CO)[C@@H](O)[C@H](O)[C@H]1O (stereo partly specified)	i
Cc1c(Cl)cccc1NC(=O)c1ncn2c1C(=O)N(C1CC1)C(C)(C(=O)NCCCOC(C)C)C2 (stereo unspecified)	i
CS(=O)(=O)c1ccc(OC[C@H]2C[C@@H](NC(=O)c3ccccc3)[C@H](O)[C@@H]2O)cc1	i
CC1(C(=O)NCc2ccccc2)Cn2c(cc3occc32)C(=O)N1Cc1ccc(Cl)cc1 (stereo unspecified)	i
Cc1cccc(-c2nnn3c2nc(N2CCOCC2)c2cc(Cl)ccc23)c1	i
CCC(C)NC(=O)c1ccc2c(=O)n(CCC(C)C)c3n[nH]c(=O)n3c2c1 (stereo unspecified)	i
Cc1cc(C)n(-c2cccc(CN(C)C(=O)c3cn(Cc4ccc(Cl)cc4)nn3)c2)n1	i
COc1ccc(NC(=O)N[C@H]2CO[C@H]3[C@@H]2OC[C@@H]3n2nnnc2-c2ccccc2)cc1	i
CC(=O)N1CCC(C(=O)NC2CCc3n[nH]c(=O)n3CC2)CC1 (stereo unspecified)	i
CCCCNC(=O)CCc1nnc2n(CC(C)C)c(=O)c3ccccc3n12	i
CN1C[C@@H](NC(=O)NC2CCCCC2)C[C@H]1c1nc(-c2cccnc2)no1	i

Continued (four carried over from the part before).
mol	Methyltransferases
COc1ccc(NC(=O)N[C@H]2CO[C@H]3[C@@H]2OC[C@@H]3n2nnnc2-c2ccccc2)cc1	i
CC(=O)N1CCC(C(=O)NC2CCc3n[nH]c(=O)n3CC2)CC1 (stereo unspecified)	i
CCCCNC(=O)CCc1nnc2n(CC(C)C)c(=O)c3ccccc3n12	i
CN1C[C@@H](NC(=O)NC2CCCCC2)C[C@H]1c1nc(-c2cccnc2)no1	i
O=C1CC2(CCN(CC3CCCCC3)CC2)Oc2ccccc2N1c1ccccc1	i
C=CCN1CCc2cc(O)c(O)cc2C(c2ccccc2)C1 (stereo unspecified)	u
CCn1cc(C(=O)N2CCc3cc(S(=O)(=O)NCC4CCCO4)ccc3C2)cn1 (stereo unspecified)	i
CC(=O)Oc1ccc(C2Nc3ccc4ccccc4c3C3C=CCC32)c(OC(C)=O)c1 (stereo unspecified)	i
COc1ccc(OC)c(CCNC(=O)Cn2ccc3cc(S(=O)(=O)N4CCCC4)ccc32)c1	i
O=C(OC1CN2CCC1CC2)N1CCc2ccccc2C1c1ccccc1 (stereo unspecified)	i
Cc1ccc(S(=O)(=O)c2nnn3c2nc(N2CCOCC2)c2cc(Cl)ccc23)cc1C	i
CC(C)CCN1C(=O)c2cc3occc3n2CC1(C)C(=O)NC1CCCC(C)C1C (stereo unspecified)	i
Cc1ccc(C)c(N2C(=O)c3cc(C4CC4)nn3CC2(C)C(=O)NC2CCCCCC2)c1 (stereo unspecified)	i
COc1ccccc1CNC(=O)C1(C)Cn2nc(-c3ccccc3)cc2C(=O)N1CCC(C)C (stereo unspecified)	i
CC1(C)CC[C@]2(CO[C@@H]3O[C@H](CO)[C@@H](O)[C@H](O)[C@H]3O)[C@@H](O)C[C@]3(C)C(=CCC4[C@@]5(C)CC[C@H](O[C@@H]6O[C@H](CO[C@@H]7O[C@H](CO[C@@H]8OC[C@@H](O)[C@H](O)[C@H]8O)[C@@H](O)[C@H](O)[C@H]7O)[C@@H](O)[C@H](O)[C@H]6O)C(C)(C)C5CC[C@]43C)[C@@H]2C1 (stereo partly specified)	u
CN1C(=O)c2cc(C(=O)N3CCN(c4ccccc4)CC3)nn2CC1(C)C(=O)NCc1ccccc1 (stereo unspecified)	i
Cc1ccc(Cn2c(=O)c3ccccc3n3c(=O)n(Cc4cccc(F)c4)nc23)cc1	i
CCOc1ccc(-c2cc3n(n2)CC(C)(C(=O)NC2CCCCC2)N(C2CCCCC2)C3=O)cc1 (stereo unspecified)	i
CC(C)[C@@H]1CC[C@@H](C)C[C@@H]1P(=O)(c1ccccc1)c1ccccc1	i
COC(=O)c1ncn2c1C(=O)N(CCCc1ccccc1)C(C)(C(=O)NC1CCCCCC1)C2 (stereo unspecified)	i
CC(=O)Nc1ccc(-c2nnc3n(Cc4ccccc4Cl)c(=O)c4ccccc4n23)cc1	i
CCc1ccc(CN2C(=O)c3ccc(-c4ccccc4)n3CC2(C)C(=O)NC2CCC(C)CC2)cc1 (stereo unspecified)	i
CC(C)OCCCn1c(=O)c2ccccc2n2c(SCC(=O)Nc3cc(F)ccc3F)nnc12	i
O=C(c1ccccn1)N1C[C@@H]2C[C@H](C1)c1ccc(NS(=O)(=O)Cc3ccccc3)c(=O)n1C2	i
C[C@@H](O)[C@H]1C(=O)N2C(C(=O)O)=C(SCCN=CN)C[C@H]12	i
CC1c2cccn2CCN1C(=O)Nc1ccccc1 (stereo unspecified)	i
O=c1[nH]c(=O)n([C@H]2CCCO2)cc1F	i
COC(=O)c1cc2n(n1)CC(C)(C(=O)NC1CCCCCC1)N(c1ccccc1C)C2=O (stereo unspecified)	i
CCn1nc(C)c(-c2cc(C(=O)NCCc3noc(COC)n3)no2)c1C	i
Nc1ncnc2n[nH]c(Nc3ccc(F)cc3)c12	u
CC(C)OCCCNC(=O)C1(C)Cn2cnc(C(=O)Nc3cccc(Cl)c3)c2C(=O)N1C1CC1 (stereo unspecified)	i
CN[C@H](CNC(=O)N1CCC[C@@H]([C@@H](OCCNC(=O)OC)c2cccc(Cl)c2)C1)C[C@H]1CCCOC1	i
CCc1ccc(NC(=O)c2cc3n(n2)CC(C)(C(=O)NC2CCCCCC2)N(C)C3=O)cc1 (stereo unspecified)	i
O=C(CCc1nnc2n(Cc3ccc(Cl)cc3)c(=O)c3ccccc3n12)N1CCN(c2ccccn2)CC1	i
CCN(Cc1nccn1C)C(=O)c1ccc(N2CCSCC2)nc1	i
CCOc1ccc(N2C(=O)c3cc4occc4n3CC2(C)C(=O)NC2CCCCCC2)cc1 (stereo unspecified)	i
c1ccc(-c2nc(-c3ccc(OC4CNC4)cc3)no2)cc1	u
CCCc1c(C(C)C)nc(C(C)C)c([C@@H](C)O)c1-c1ccc(F)cc1O	i
COc1ccc(CC(=O)N2CCc3nc(-c4cccnc4)[nH]c3C2)cc1	i
CC(C)O[C@@H]1O[C@H](CO)[C@@H](O)[C@H](O)[C@H]1O	u
CC1(C)CCCC2(C)C(CO)C(CO)=CCC12 (stereo unspecified)	i
Cc1ccc(C)c(N2CCN(CCN3C(=O)c4ccc(-c5ccco5)n4CC3(C)C(=O)NC3CCCC3)CC2)c1 (stereo unspecified)	i
CC(=O)Nc1c2n(c3ccc(F)cc13)CC(C)(C(=O)NC1CCCC1)N(CC1CCCO1)C2=O (stereo unspecified)	i
COC(=O)C[C@H]1C(C)(C)[C@H](OC(=O)C(C)C)C2CC3=C4CC(=O)O[C@@H](c5ccoc5)[C@]4(C)CCC3[C@@]1(C)C2=O (stereo partly specified)	i
CC(=O)Nc1ccc(CC(=O)N2CCC3(CCc4nn(Cc5ccccc5)c(=O)n4CC3)CC2)cc1	i
CC(C(O)/C=C/C(C)(C)O)C1CCC2(C)C3C(=O)C=C4C(CCC(O)C4(C)C)C3(C)CCC12C (stereo unspecified)	i
COc1ccc2cc3n(c2c1)CC(C)(C(=O)NC1CCCCC1)N(c1ccc2c(c1)OCO2)C3=O (stereo unspecified)	i
C=C(C)C1Cc2c(ccc3c2OCC(c2ccc(O)cc2O)C3)O1 (stereo unspecified)	i
CC(C)CN(CCCN1C(=O)c2cc3occc3n2CC1(C)C(=O)NC1CCCCCC1)CC(C)C (stereo unspecified)	i
